RE007 growth inh – qHTS Assay for Inhibitors of the HIV-1 protein Vpr; S. pombe RE007 Vpr strain, BacTiter-Glo ATP luminescence, 24 h; control for the full effect not named in the record; AID 651644, 2012; 360,000 tested, 0.21% active; Potency, µM (highest dose often 92.2 µM), for inactives: top-dose activity change, negative = less growth; active = well fitted falling curve with a large enough effect; inconclusive = small, poorly fitted or top-dose-only effect; inactive = no such curve, though single readings can be large or run the other way;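 note: % is set by controls: 0 for no effect and ±100 for the full control effect; nearly all actives have a fitted effect of over 50% in size; the assay follows cell death caused by Vpr and the record does not say whether a fall means rescue or toxicity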
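Fission yeast strain RE007, carrying one chromosomally integrated HIV-1 vpr copy, was seeded at OD 0.01 in PMG+AL medium with 23 nL pinned compound. After 24 h at 30 °C and 99% humidity, viability was read by BacTiter-Glo luminescence.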
NS1 function inh – qHTS Assay for Inhibitors of Influenza NS1 Protein Function; S. cerevisiae slowed by influenza A NS1, growth recovery by OD600; Potency, µM (titrated, usually from 46.1 µM), without a hit: at the highest dose activity, positive = more growth; 270,000 tested, 0.4% active; note: actives are rising curves; nearly all actives have a fitted effect of over 50% in size
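Read-out: OD600 growth recovery of NS1-expressing budding yeast. Cells grown overnight at 30C in -URA glucose medium, washed, resuspended and diluted 1:100 in 2% galactose assay medium, pH 6.0. Same strain lacking NS1 served as positive control.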
Marburg entry inh – qHTS for inhibitors of binding or entry into cells for Marburg Virus. Marburg virus pseudotyped entry inhibition, cell reporter; control for the full effect not named in the record; about a third of the inactives were read at about 46 µM. Potency, µM (titrated, usually from 37.8 µM), for inactives: at the top dose activity change, negative = inhibition, usual class: inhibitors. 300,000 tested, 1.8% active; active = well fitted inhibition curve with a large enough effect; inconclusive = small, poorly fitted or top-dose-only effect, or effect the other way; inactive = flat fitted curve, though single readings scatter; tested in HEK293 cells; about a fifth of its hits are not listed in these tables; note: % is set by controls: 0 for no effect and ±100 for the full control effect; luciferase read-out
StopGo reporter – High Throughput Screening for Foot and Mouth Disease Virus Antivirals. human cells with a luciferase reporter of 2A StopGo recoding; control for the full effect not named in the record. Potency, µM (top dose mostly 57.9 µM), for inactives: top-dose signal change, negative = less light. 410,000 tested, 1.2% active; active = well fitted falling curve with a large enough effect; inconclusive = small, poorly fitted or top-dose-only effect; inactive = no such curve, though single readings can be large or run the other way; tested in HEK293T cells; note: % is set by controls: 0 for no effect and ±100 for the full control effect; nearly all actives have a fitted effect of over 45% in size; luciferase light after 4 h
Cruzain Triton – qHTS Assay for Promiscuous and Specific Inhibitors of Cruzain (with detergent); AID 1478, 2009; Cruzipain (Trypanosoma cruzi), P25779; purified cruzain, Z-FR-AMC fluorescence, 0.01% Triton; Potency, µM, for inactives: max response, negative = inhibition, hits mostly inhibitors; 200,000 tested, 0.43% active; active = well fitted curve in the direction sought with a large enough effect; inconclusive = small, poorly fitted or top-dose-only effect, or another doubt; inactive = no such curve, though single readings can be large; an effect the other way counts as inactive or inconclusive;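 note: plate controls were neutral wells for no effect and buffer without enzyme for full effect; nearly all actives have a fitted effect of over 40% in size; top concentration of the series not given in the record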
Target sequence (P25779 123-467 limits assumed): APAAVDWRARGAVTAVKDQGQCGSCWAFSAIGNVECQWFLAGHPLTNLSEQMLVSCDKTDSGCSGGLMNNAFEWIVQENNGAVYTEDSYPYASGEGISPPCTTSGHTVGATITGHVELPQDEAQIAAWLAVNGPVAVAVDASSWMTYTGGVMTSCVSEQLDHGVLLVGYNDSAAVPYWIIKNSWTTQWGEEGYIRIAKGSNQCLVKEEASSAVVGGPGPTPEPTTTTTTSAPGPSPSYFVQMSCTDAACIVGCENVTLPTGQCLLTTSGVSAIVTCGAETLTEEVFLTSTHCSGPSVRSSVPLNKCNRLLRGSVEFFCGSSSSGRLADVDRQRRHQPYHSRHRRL
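Cruzain (1.5 nM) preincubated 15 min at RT with compound in 100 mM sodium acetate pH 5.5, 5 mM DTT, 0.01% Triton X-100. Reaction started with 2 uM Z-FR-AMC; AMC fluorescence (ex 360/em 450 nm) change over 60 s gave rate.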
Lassa entry inh – qHTS for Inhibitors of binding or entry into cells for Lassa Virus; Lassa virus pseudotype entry inhibition, cell reporter; control for the full effect not named in the record; 300,000 tested, 1.2% active; Potency, µM (top dose mostly 37.9 µM), without a hit: top-dose activity change, negative = inhibition, hits mostly inhibitors; active means well fitted inhibition curve with a large enough effect; inconclusive means small, poorly fitted or top-dose-only effect, or effect the other way; inactive means flat fitted curve, though single readings scatter; tested in HEK293 cells; note: % is set by controls: 0 for no effect and ±100 for the full control effect; nearly all actives have a fitted effect of over 50% in size; luciferase read-out
Cruzain inh noDet – qHTS Assay for Promiscuous and Specific Inhibitors of Cruzain (without detergent); Cruzipain (Trypanosoma cruzi), P25779; purified cruzain, Z-FR-AMC fluorescence, no detergent; Potency, µM, inactives show max response, negative = inhibition, usual class: inhibitors; 200,000 tested, 2.3% active; AID 1476, 2009; active = well fitted curve in the direction sought with a large enough effect; inconclusive = small, poorly fitted or top-dose-only effect, or another doubt; inactive = no such curve, though single readings can be large; an effect the other way counts as inactive or inconclusive;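 note: plate controls were enzyme without inhibitor for no effect and buffer without enzyme for full effect; nearly all actives have a fitted effect of over 40% in size; top concentration of the series not given in the record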
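Detergent-free condition (0.00005% Triton X-100) in acetate buffer pH 5.5 with DTT. 1.5 nM enzyme and compound were pre-mixed 15 min, then 2 uM Z-FR-AMC substrate added; reaction progress from fluorescence change between first and third reads (60 s).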
SARS PLP yeast – qHTS of Yeast-based Assay for SARS-CoV PLP; S. cerevisiae expressing SARS-CoV PLpro, growth rescue; control for the full effect not named in the record; Potency, µM (titrated, usually from 32.9 µM), inactives show at the top dose activity, positive = growth rescue; 330,000 tested, 0.19% active; AID 485353, 2010; note: 0% is about no effect; nearly all actives have a fitted effect of over 55% in size; growth read by luminescence after 48 h
* hit, by the source's call; & = joins results of further samples; [ ] = dose if it differs, or a comment. Unless noted, calls come from the whole dose curve; as a rule, active means well fitted rising curve with a large enough effect; inconclusive means small, poorly fitted or top-dose-only effect; inactive means no such curve, though single readings can be large or run the other way. Potency is the fitted concentration of half-maximal effect.

COc1ccc(C2(c3ccc(OC)cc3)NC(=O)N(CC(=O)Nc3ccccc3C)C2=O)cc1 was read as RE007 growth inh -2%, NS1 function inh 2%, Marburg entry inh 3%[46.1 µM], StopGo reporter -10%, Lassa entry inh inconclusive and SARS PLP yeast 0%.
For CCOc1cc(/C=N/Nc2nn3cnnc3c3ccccc23)ccc1O the results were RE007 growth inh -7%, NS1 function inh 5%, StopGo reporter 0% and SARS PLP yeast -1%.
CCOC(=O)c1c(C)oc2c(F)c(F)c(F)c(F)c2c1=O was read as RE007 growth inh -21%, NS1 function inh -106%, Marburg entry inh inconclusive, StopGo reporter 11µM*, Cruzain Triton -2.2%, Lassa entry inh inconclusive, Cruzain inh noDet -4% and SARS PLP yeast -18%.
`COc1cc(NC(=O)c2ccccc2)c(OC)cc1NC(=O)CN1C(=O)N(C)C2(CCCCC2)C1=O` gave RE007 growth inh 8%, Marburg entry inh -8%, StopGo reporter -15%, Lassa entry inh 3% and SARS PLP yeast 1%.
`CCOc1ccccc1NC(=O)CSc1nnc(-c2ccco2)n1Cc1ccco1` gave RE007 growth inh 5%, NS1 function inh -13%, Marburg entry inh -8%, StopGo reporter -12%, Cruzain Triton -1.8%, Lassa entry inh 0%, Cruzain inh noDet 11% and SARS PLP yeast 3%.
Screening COc1ccc(N2CCN(C(CNC(=O)C(=O)NCCc3c[nH]c4ccccc34)c3ccco3)CC2)cc1 (stereo not drawn) returned RE007 growth inh 13%, NS1 function inh -4%, Marburg entry inh 8%, StopGo reporter inconclusive, Cruzain Triton -0.8%, Lassa entry inh -2%, Cruzain inh noDet 13% and SARS PLP yeast -21%.
`CCOC(=O)C1=C(C)NC(=O)NC1/C=C\c1ccccc1` (stereo not drawn) gave RE007 growth inh 2%, NS1 function inh -3%, Marburg entry inh -20%, StopGo reporter -1%, Lassa entry inh inconclusive and SARS PLP yeast -7%.
Screening COc1ccc(NC(=O)CC2(Cc3ccccc3)CCOC(C)(C)C2)cc1 (stereo not drawn) returned RE007 growth inh -1%, NS1 function inh -39%, Marburg entry inh inconclusive, StopGo reporter -25%, Cruzain Triton -4.1%, Lassa entry inh 5%, Cruzain inh noDet 9% and SARS PLP yeast -4%.
`CS(=O)(=O)N1CCC(C(=O)Nc2ccc3c(c2)OCO3)CC1` gave RE007 growth inh 0%, NS1 function inh 2%, Marburg entry inh -9%, Cruzain Triton 1.9%, Lassa entry inh 3%, Cruzain inh noDet -2% and SARS PLP yeast 3%.
Screening Cc1cccc(NC(=O)CN(CC2CCCO2)C(=O)c2ccc(S(C)(=O)=O)cc2)c1C (stereo not drawn) returned RE007 growth inh -17%, Marburg entry inh -13%, StopGo reporter -13%, Lassa entry inh -6% and SARS PLP yeast 1%.
Screening Cc1cnc(C(=O)OC(C)C(=O)Nc2ccc(Cl)cn2)cn1 (stereo not drawn) returned RE007 growth inh inconclusive, Marburg entry inh 1%[46.1 µM], StopGo reporter -16%, Lassa entry inh 11% and SARS PLP yeast 2%.
For CCn1cc([N+](=O)[O-])c(C(=O)N2N=C(c3ccc(O)c(OC)c3)CC2c2ccccc2O)n1 (stereo not drawn) the results were RE007 growth inh 4%, NS1 function inh inconclusive, Marburg entry inh inconclusive, StopGo reporter -4%, Cruzain Triton -8.7%, Lassa entry inh inconclusive, Cruzain inh noDet 27% and SARS PLP yeast -1%.
Cc1cccc(NC(=S)NNC(=O)CCn2nc(C)c([N+](=O)[O-])c2C)c1 was read as RE007 growth inh 17%, NS1 function inh -5%, Marburg entry inh 4%, StopGo reporter 14%, Cruzain Triton -1.7%, Lassa entry inh -9%, Cruzain inh noDet 6% and SARS PLP yeast -4%.
O=C(CCCSc1nc2ccccc2s1)Nc1nccs1 was read as RE007 growth inh -15%, NS1 function inh -1%, Marburg entry inh inconclusive, StopGo reporter -19%, Cruzain Triton -0.2%, Lassa entry inh -2%, Cruzain inh noDet -7% and SARS PLP yeast 6%.
CC1CN(C(=O)/C=C/c2ccccc2Cl)CC(C)O1 (stereo not drawn) was read as RE007 growth inh -14%, NS1 function inh -4%, StopGo reporter 19% and SARS PLP yeast -4%.
Screening CC(C)CC(=O)Nc1sc2c(c1C(=O)O)CCCCC2 returned RE007 growth inh 13%, NS1 function inh -2%, StopGo reporter 27% and SARS PLP yeast -1%.
Screening CC(C)c1ccc(Oc2cccc(C(=O)/C(C#N)=C/N(C)C)c2)cc1 returned RE007 growth inh 23%, NS1 function inh -61%, Marburg entry inh inconclusive, StopGo reporter -9%, Cruzain Triton -15%, Lassa entry inh -15%, Cruzain inh noDet inconclusive and SARS PLP yeast -10%.
For Cc1nnc(NC(=O)NC(C)N2C(=O)C3C4C=CC(C4)C3C2=O)s1 (stereo not drawn) the results were RE007 growth inh 3%&-11%, NS1 function inh -17%, Marburg entry inh inconclusive, StopGo reporter -11%&-2%, Cruzain Triton 5.2%, Lassa entry inh 0%[46.1 µM], Cruzain inh noDet 2% and SARS PLP yeast 3%.
`CCCCn1c(N)c(NCc2ccccc2OC)c(=O)[nH]c1=O` gave RE007 growth inh 1%, NS1 function inh -5%, Marburg entry inh 7%[46.1 µM], StopGo reporter -8%, Lassa entry inh 21% and SARS PLP yeast 3%.
For COc1ccc(C)cc1NC(=O)CNc1ccc(C(C)=O)cc1 the results were RE007 growth inh 1%, NS1 function inh 3%, Marburg entry inh inconclusive, StopGo reporter -23%, Cruzain Triton -6.9%, Lassa entry inh -6%, Cruzain inh noDet 6% and SARS PLP yeast 28%.
COc1ccc(C(=O)c2ncc(C(F)(F)F)cc2Cl)cc1 was read as RE007 growth inh 8%, NS1 function inh 0%, Marburg entry inh 12%[46.1 µM], StopGo reporter 18%, Lassa entry inh -1% and SARS PLP yeast 1%.
`O=C(Cn1c2ccccc2c2nc3n(c(=O)c21)CCS3)Nc1ccccc1C(F)(F)F` gave RE007 growth inh -4%, Marburg entry inh 13%[46.1 µM], StopGo reporter -12%, Lassa entry inh 4% and SARS PLP yeast 0%.
`CCOC(=O)C1CCN(C(=O)Nc2ccccc2Cl)CC1` gave RE007 growth inh -15%, NS1 function inh 13%, Marburg entry inh 1%, StopGo reporter 7%, Cruzain Triton 4.1%, Lassa entry inh 2%, Cruzain inh noDet -12% and SARS PLP yeast -4%.
Screening CC(=O)CCc1ccc(OCC(=O)Nc2cccc(S(=O)(=O)N(C)c3ccccc3)c2)cc1 returned RE007 growth inh -4%, Marburg entry inh -7%, StopGo reporter -22%, Lassa entry inh -1% and SARS PLP yeast -1%.
For CCN(CC)c1ccc(S(=O)(=O)N2CCOCC2)cc1NC(=O)CNCc1ccccc1 the results were RE007 growth inh 1%, NS1 function inh -6%, StopGo reporter 2% and SARS PLP yeast 1%.
Screening CC12C=CC(=O)C=C1CCC1C2C(O)CC2(C)C1CCC2(C)O (stereo not drawn) returned RE007 growth inh 7%, Marburg entry inh 4%[46.1 µM], StopGo reporter -11% and Lassa entry inh 3%[46.1 µM].
For N#CCCn1nc(-c2ccccc2)cc1Nc1ccccc1NC(=O)C(F)(F)F the results were RE007 growth inh 1%, NS1 function inh -4%, Marburg entry inh 8%, StopGo reporter -24%, Cruzain Triton -4.4%, Lassa entry inh -3%, Cruzain inh noDet 1% and SARS PLP yeast inconclusive.
Screening CC(C)C(NS(=O)(=O)c1cccc2nsnc12)C(=O)N1CCCCC1 (stereo not drawn) returned RE007 growth inh -4%, NS1 function inh 10%, StopGo reporter 21% and SARS PLP yeast 3%.
Screening CCOC(=O)/C(C#N)=C1/SC(C)C(=O)N1c1ccc(Br)cc1 (stereo not drawn) returned RE007 growth inh -2%, NS1 function inh inconclusive, Marburg entry inh -12%, StopGo reporter 19%, Cruzain Triton -3.2%, Lassa entry inh -16%, Cruzain inh noDet 6% and SARS PLP yeast -3%.
For COc1ccc(-c2nn(Cc3ccccc3)cc2C(=O)N2CCN(c3ccccn3)CC2)cc1OC the results were RE007 growth inh 2%, Marburg entry inh 1%, StopGo reporter 23%, Lassa entry inh inconclusive and SARS PLP yeast -1%.
Screening O=C(COc1ccc(Cl)cc1)Nc1ncccn1 returned RE007 growth inh 15%, NS1 function inh -2%, Marburg entry inh 26%, StopGo reporter 53%[activator], Cruzain Triton -3.1%, Lassa entry inh 3%, Cruzain inh noDet 0% and SARS PLP yeast 2%.
Cc1nc2ccccc2c(=O)n1NS(C)(=O)=O was read as RE007 growth inh -2%, NS1 function inh 3%, Marburg entry inh -1%, StopGo reporter -18%, Cruzain Triton 2.2%, Lassa entry inh -9%, Cruzain inh noDet -8% and SARS PLP yeast 2%.
For CC(C)c1ccc(NC(=O)CCN2C(=O)c3ccc([N+](=O)[O-])cc3C2=O)cc1 the results were RE007 growth inh -16%, NS1 function inh 1%, Marburg entry inh inconclusive, StopGo reporter -9%, Cruzain Triton 2.7%, Lassa entry inh 0%, Cruzain inh noDet -4% and SARS PLP yeast 9%.
Screening COCc1nnc(NC(=O)C2CC(=O)N(C3CCCC3)C2)s1 (stereo not drawn) returned RE007 growth inh -20%, NS1 function inh -3%, Marburg entry inh 3%[46.1 µM], StopGo reporter 7%, Lassa entry inh 17%[46.1 µM] and SARS PLP yeast -1%.
Screening O=C(O)CSc1ccc(NC(=O)Nc2ccccc2F)cc1 returned RE007 growth inh inconclusive, NS1 function inh -3%, StopGo reporter 23% and SARS PLP yeast -2%.
`COC(=O)c1ccc([C@H]2Nc3ccc(S(=O)(=O)Nc4ccc(C)cc4)cc3[C@H]3C=CC[C@H]32)cc1` gave Marburg entry inh -3%[46.1 µM], StopGo reporter 18%, Cruzain Triton -16%, Lassa entry inh 5%[46.1 µM] and Cruzain inh noDet 2%.
